Ba CapD inh: Bacillus anthracis CapD inhibitors, primary screen, biochemical, fluorescence intensity | CapD gamma-glutamyltranspeptidase (Bacillus anthracis Ames Ancestor) | 0.23% of 140,000 active | AID 492967, 2010 | purified CapD enzyme, fluorescence intensity read-out; active compounds read low; some hits fall short of the stated cut | z-score (no concentration beside the values);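 active means z-score under -4 in either of two replicates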;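 further: stock transfer was 100 nL into about 40 µL; score is relative to mean and spread of the plate; one replicate is shown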
AID504770: growth inhibition of E. coli YBA685, primary screen, V. cholerae RctB inhibitors. 0.27% of 130,000 active. z-score (test concentration not listed). E. coli YBA685 rctB-dependent plasmid, OD600 growth, 3 h; active compounds read low;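 active means z-score under -2 on both plates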;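 further: wells of about 30 µL received 100 nL stock; score is relative to mean and SD of the test wells; the first replicate is given; strong numbers were not always called active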
* marks the source's active call; other numbers are inactive results; nt = not tested or not shown; & = joins results of further samples. A portion of the library; rates above refer to the full screens.

Below each compound – Ba CapD inh | AID504770
> CCC(C#CCN1CCCCC1)(CC)OC(C)=O
    nt | -0.05
> CC(=O)Nc1ccc(S(=O)(=O)Nc2ccc3[nH]c(C)cc3c2)cc1
    -0.35 | nt
> Cc1nnc(Nc2ccccc2)n(N)c1=O
    nt | -0.75
> COc1cc(/C=C\C(=O)Nc2c3c(nn2-c2cccc(C)c2C)CS(=O)(=O)C3)cc(OC)c1OC
    13 | nt
> CCOc1ccccc1C1C(C#N)=C(N)Oc2n[nH]c(-c3ccc(OC)c(OC)c3)c21 (centres undefined)
    -0.14 | nt
> CC(C)CN1C(=O)c2ccc(C(=O)NC3CCCCC3)cc2C1=O
    0.66 | -0.05
> CSc1nc(N)n(-c2cc(C(F)(F)F)cc(C(F)(F)F)c2)n1
    -0.24 | -0.35
> COc1ccc(N2CC(NC(=O)NCCn3c(C)cc4ccccc43)CC2=O)cc1OC (centres undefined)
    nt | 2.2
> Cn1cc(NC(=O)Nc2ccc(C(F)(F)F)cc2)c(C(F)(F)F)n1
    0.24 | -0.1
> O=C(NO)C12CC3CC(CC(C3)C1)C2
    -0.14 | -0.9
> CCOc1cc(C)[nH]n1
    0.26 | 0.75
> CC12c3ccccc3C(C=O)(c3ccccc31)C1C(=O)N(c3ccccc3Br)C(=O)C12 (centres undefined)
    -0.32 | nt
> C/C(N)=C\C(=O)Nc1ccccc1
    nt | -0.55
> NC(=O)c1ccsc1NC(=O)CSc1ccccc1
    nt | -0.5
> O=C(CNCC1CCCO1)Nc1ccccc1-n1cccc1 (centres undefined)
    nt | -1.1
> Cc1cc(=O)c2ccccc2[nH]1
    0.72 | nt
> CC1=C(C(=O)Nc2ccccc2C(F)(F)F)C(c2cccnc2)C2=C(CC(c3ccccc3)CC2=O)N1 (centres undefined)
    18 | nt
> CCOC(=O)c1cnc2cc(C)[nH]n2c1=O
    -0.085&2.9 | 0.15
> CCCN1CCC(N(C(=O)c2ccc(NC(=O)c3ccc([N+](=O)[O-])cc3)cc2)C2CC2)CC1
    -0.22 | nt
> O=C1NC(=O)N(Cc2ccccc2)C(=O)/C1=C\c1ccccc1
    -0.57 | 1.4
> CCC(CC)NC(=O)CSc1nnc(-c2ccc(C)cc2)n1N
    nt | -0.5
> c1coc(C2NCCc3ccccc32)c1 (centres undefined)
    0.005 | 0.15
> CC(C)(C)c1ccc(OCC(=O)NC(c2ccccc2)c2ccccc2)cc1
    -0.24 | -0.55
> CCN1CC=C2C(C#N)=C(N)C(C#N)(C#N)C(C)C2C1 (centres undefined)
    nt | -0.25
> C=CCOc1ccc(CN2CCN(C(=O)C3CCC(CNC(=O)OC(C)(C)C)CC3)CC2)cc1 (centres undefined)
    0.48 | nt
> O=C(NCc1ccc(S(=O)(=O)NCCSCc2ccco2)s1)c1ccccc1
    -0.15 | nt
> COc1cc(OC)c(NC(=O)c2sc3ncnc(N4CCOCC4)c3c2C)cc1Cl
    -0.59 | nt
> CN1CCCN(c2nc3ccccc3nc2NS(=O)(=O)c2ccc(Cl)cc2)CC1
    nt | -0.3
> NC(=O)C1CCN(CC(O)(c2ccccc2)c2ccccc2)CC1
    -0.59 | 1.7
> O=C(CC12CC3CC(CC(C3)C1)C2)N1CCc2c([nH]c3ccccc23)C1C(F)(F)F (centres undefined)
    0.9 | nt
> Cc1onc(-c2c(Cl)cccc2Cl)c1/C(N)=N/OC(=O)C1CC1
    0.62 | -0.25
> COc1cc(-c2onc3ccc(Cl)cc23)cc(OC)c1OC
    0.04 | -0.35
> CC1CC(C)CN(S(=O)(=O)c2ccc(C(=O)OCc3nnc(-c4ccc(Cl)cc4)o3)cc2)C1 (centres undefined)
    nt | -0.55
> COc1nc2ccccc2nc1CCC(=O)O
    45 | -1
> NC(=O)c1cc(NC(=O)C2CCCC2)cc(C(N)=O)c1
    nt | -0.35
> COc1ccc(CCNC(=O)CSc2ccccc2C(=O)N2CCN(C(C)=O)CC2)cc1OC
    nt | 0.1
> O=C1Cn2c(nc3ccccc32)N1c1ccccc1F
    -0.65 | -0.7
> CC1=C(C(=O)N(C)C)C(c2ccccc2Cl)NC(=O)N1 (centres undefined)
    nt | -1.6
> O=C(CC1(O)C(=O)Nc2ccc(Br)cc21)c1ccc(-c2ccccc2)cc1 (centres undefined)
    0.1 | nt
> FC(F)(F)c1ccccc1-c1ccc(-c2nnc(-c3ccco3)o2)o1
    nt | -0.15
> COC(=O)C1=C(C(=O)OC)SC2(S1)C(C(=O)OC)=C(C(=O)OC)SC1=C2c2cc(C)ccc2N(C(=O)c2ccccc2)C1(C)C
    -0.13 | nt
> Clc1ccc(-c2csc(COc3ccc4nonc4c3)n2)cc1
    1.2 | 0
> Cc1ccc(Cn2c(CO)cnc2SCC(=O)N2CC(C)OC(C)C2)cc1 (centres undefined)
    nt | 1.4
> Cc1cc(N)nn1C(=O)CSc1nc2c(sc(=S)n2Cc2ccco2)c(=O)n1-c1ccc(F)cc1
    -0.86 | nt
> CCOc1ccc(-c2nn(-c3ccccc3)cc2C2C(C(=O)OCCOC)=C(C)NC(C)=C2C(=O)OCCOC)cc1
    1.8 | nt
> CCC(C)(C)c1ccc(S(=O)(=O)N2CCCN(Cc3ccc(Cl)c(Cl)c3)CC2)cc1
    -0.33 | nt
> O=C(Nc1c(Cl)cccc1Cl)N1CCOC12CCCCC2
    0.12 | -0.25
> Oc1ccc(Br)cc1-c1nc(Cl)c2ccccc2n1
    -0.14 | nt
> O=C(Nc1ccc(Oc2ncnc3sc4c(c23)CCCCC4)cc1)c1ccco1
    nt | 0.1
> Cc1ccc(C(=O)CS(C)(=O)=O)cc1
    1 | 0.75
> C=CCOc1ccccc1CN(C(=O)c1ccco1)c1ccc2c(c1)OCO2
    nt | 0.4
> OC(CSc1ccccc1)CN1CCC(Nc2nccc(C(F)(F)F)n2)CC1 (centres undefined)
    2.3 | 0.15
> CC(c1ccccc1F)n1cc(C(=O)NC2CCCC2)nn1 (centres undefined)
    nt | 0.25
> O=c1[nH]c(CN2CCCC2)nc2scc(-c3ccccc3)c12
    nt | 1.2
> c1ccc(-n2nnnc2Sc2nnc(C3COc4ccccc4O3)n2-c2ccccc2)cc1 (centres undefined)
    nt | -0.05
> COc1ccccc1OCCSc1nc2ccccc2n1CCC(=O)O
    0.28 | nt
> O=C(O)C(c1ccccc1)N1CCCCC1 (centres undefined)
    0.15 | -0.45
> C#CCN1C(=O)S/C(=C/c2cc(OC)c(OCC(=O)O)cc2Br)C1=O
    -0.6 | -0.2
> O=C(N/N=C/c1c(O)ccc2ccccc12)N/N=C/c1c(O)ccc2ccccc12
    0.42 | nt
> NC(=O)c1nnn(Cc2ccccc2)c1N
    0.21 | -0.35

The last four compounds of the section before open the next one.
Below each compound – Ba CapD inh | AID504770
> O=C(O)C(c1ccccc1)N1CCCCC1 (centres undefined)
    0.15 | -0.45
> C#CCN1C(=O)S/C(=C/c2cc(OC)c(OCC(=O)O)cc2Br)C1=O
    -0.6 | -0.2
> O=C(N/N=C/c1c(O)ccc2ccccc12)N/N=C/c1c(O)ccc2ccccc12
    0.42 | nt
> NC(=O)c1nnn(Cc2ccccc2)c1N
    0.21 | -0.35
> CCCCNc1ncnc2c1[nH]c1ccc(C)cc12
    50 | -1.5
> CN1c2ccccc2C(=O)/C(=C/N=S(C)(=O)c2ccccc2)S1(=O)=O (centres undefined)
    0.86 | -0.4
> O=C(NCc1cn2ccsc2n1)C(F)(F)F
    -0.47 | -0.75
> C=CCN1C(=O)C2(Nc3ccccc3C(=O)N2c2ccc(Cl)cc2)c2ccccc21 (centres undefined)
    0.23 | nt
> Cc1ccc(-c2cc3c(n2Cc2cccs2)CC(C)(C)CC3=O)cc1
    -0.28 | 0.4
> CCN(CC(=O)NCc1cccs1)C(=O)c1oc2ccc(OC)cc2c1C
    nt | 1.9
> CC(=O)Nc1cccc(NC(=O)Nc2ccccc2)c1
    nt | 0.45
> O=C(CSc1nc2ccccc2s1)OCN1C(=O)c2ccccc2C1=O
    -0.45 | -0.15
> N#Cc1c(NCc2ccccc2)ccnc1Cl
    1.6 | -0.55
> CCOC(=O)c1cncc(C#CC(C)(C)O)c1
    -0.11 | -0.55
> O=C(NCc1ccncc1)c1cccc(COc2ccc3c(c2)CCC3)c1
    -0.6 | -0.45
> CC(=O)OCCOCn1cc(I)c(=O)[nH]c1=O
    -0.28 | -0.7
> CC1(CC(=O)N/N=C/c2ccc(Br)o2)SCCS1
    nt | -1
> O=C(O)c1c[nH]c2cc(Cl)cc(Cl)c2c1=O
    1.2 | nt
> COC(=O)c1ccc2c(=O)n(CCc3ccc(S(N)(=O)=O)cc3)c(SCc3ccccc3Cl)nc2c1
    5.6 | nt
> CCC(C)(C)C1CCC(=NNC(=O)c2ccoc2C)CC1 (centres undefined)
    nt | -0.15
> O=C(CSc1ccc2nnc(-c3ccncc3)n2n1)N1CCCC1
    nt | -0.3
> CN(C1CCN(Cc2c(Cl)cccc2Cl)C1)S(=O)(=O)c1cc(Br)ccc1Br (centres undefined)
    0.82 | nt
> Cc1ccc2cnn(CCCC(=O)NCc3ccccc3)c2c1
    0.86 | 0.8
> CC(C)(C)C(=O)C[n+]1ccc(/C=N/O)cc1
    -0.52 | -0.3
> COc1cc(NC(=O)c2ccc3c(-n4ccnc4)c4c(nc3c2)CCCC4)cc(OC)c1OC
    -0.14 | nt
> CCOC(=O)c1c(C)oc2c1c(/C=N/c1cccc(C)n1)c(O)c1ccccc12
    11 | -0.5
> Cc1noc(-c2ccc(C(F)(F)F)cc2)c1C(=O)NNC(=O)NC1CCN(Cc2ccccc2)CC1
    0.35 | nt
> Cc1onc(-c2c(Cl)cccc2Cl)c1C(=O)N(c1cccc(Cl)c1)c1nc2ccccc2s1
    0.32 | nt
> O=S(=O)(CCS(=O)(=O)c1cccs1)c1ccccc1
    0.12 | 1.1
> CN1CCN(C(=O)CCN2C(=O)/C(=C\c3ccc(Cl)cc3Cl)SC2=S)CC1
    0.1 | nt
> CC(=O)C1=NN(c2ccc(Cl)cc2)C2(S1)SC(c1ccccc1)(c1ccccc1)c1ccccc12 (centres undefined)
    0.19 | nt
> COC(=O)c1ccc2ccccc2n1
    3.9 | -1.6
> COC(=O)CSc1nnnn1-c1ccccc1
    nt | 0.4
> CCCCC(=O)Nc1ccc(-c2csc(-c3ccccc3)n2)cc1
    3.1 | 0
> Cc1ccc(CNCC(O)COCC2CCCO2)n1C (centres undefined)
    nt | -0.05
> O=C(CSc1nc2ccccc2[nH]1)NCc1ccccc1
    nt | 1.1
> CC1=C(C(=O)c2ccccc2)C(c2ccc(C)o2)n2c(nc3ccccc32)N1 (centres undefined)
    -0.02 | 0.6
> Cc1ccccc1NC(=O)N(C)C1CCN(C)CC1
    -1.1 | 1.1
> O=C1c2ccccc2C(=O)N1CCSC1=NN2CCS(=O)(=O)N=C2S1
    nt | 1.7
> COc1ccc(/C=N/NC(=O)Cn2cncn2)cc1
    nt | -0.3
> COc1ccc(C(=O)COC(=O)c2ccc(N3C(=O)C4CC=CC(C)C4C3=O)cc2)cc1 (centres undefined)
    -0.07 | nt
> CC(C(=O)NCc1ccc2c(c1)OCO2)n1ncc(Cl)c(Cl)c1=O (centres undefined)
    nt | 0.5
> O=C(Nc1ccccc1NC(=O)c1ccc(Br)o1)c1ccc(Br)o1
    -0.41 | 0.65
> CC(Sc1nc2ccc(Br)cc2[nH]1)C(=O)O (centres undefined)
    16 | -0.2
> Cc1c(C(=O)CSCc2cccc(C(F)(F)F)c2)sc2ncnn12
    -0.48 | nt
> O=c1c2ccccc2nc2n1C(CSc1cc(Cl)ccc1Cl)CS2 (centres undefined)
    0.05 | nt
> COc1ccc(C(=O)OCC(=O)C(C)(C)C)c(OC)c1OC
    nt | 1.3
> CCCCn1c(=N)n(CC(N)=O)c2ccccc21
    -0.17 | 0.25
> CCOC(=O)c1c(C)oc2ncnc(N(C)Cc3ccccc3)c12
    -0.2 | -0.05
> Nc1ccccc1C(=O)NCc1ccco1
    79 | -0.35
> Cc1ccc(NC(=O)Nc2c(C)noc2-c2ccc(C(F)(F)F)cc2)cc1
    0.51 | -0.25
> CCCc1cc(=O)[nH]c(SCC(=O)c2ccccc2OC)n1
    nt | 0.5
> FC(F)(F)c1cccc(-c2[nH]ncc2-c2ccncc2)c1
    0.095 | nt
> O=C1CNC(=S)N1Cc1ccc(Cl)cc1
    -0.52 | nt
> Nn1cnn2c(SCC(=O)N3CCN(C(=O)CSc4nnc5n(N)cnn45)CC3)nnc12
    -0.2 | nt
> O=C(c1cc2ccccc2oc1=O)N1CCSC1c1ccco1 (centres undefined)
    nt | -0.6
> COC(=O)c1ccsc1NC(=O)C1COc2ccccc2O1 (centres undefined)
    nt | -0.6
> C=CCn1c(SCC(=O)O)nnc1-c1cccs1
    0.93 | -0.65
> CC(C)(C)c1ccc(N=Cc2ccsc2)cc1
    -0.64 | -1.1
> CC1(C)Oc2ccc(N)cc2O1
    nt | -0.05
> O=c1cc(O)nc2c(Cl)cc(C(F)(F)F)cn12
    nt | -0.15
> CC(C)(C)C(=O)CN1CCN(c2ccccc2O)CC1
    nt | -1.1
> CCn1c(-c2ccccc2)c(C(=O)CN2CCN(C)CC2)c2ccccc21
    nt | -0.65
> O=[N+]([O-])c1ccc2nc(SCc3nc4ncccn4c3Br)[nH]c2c1
    -0.85 | nt

As a short view, 2 of the compounds above.
Below each compound – Ba CapD inh | AID504770
> CC(C)(C)c1ccc(N=Cc2ccsc2)cc1
    -0.64 | -1.1
> CC1(C)Oc2ccc(N)cc2O1
    nt | -0.05

The list goes on.
Below each compound – Ba CapD inh | AID504770
> COCCNC(=O)CCC(=O)N1CCC(N(C2CC2)S(=O)(=O)c2ccccc2)CC1
    0.12 | nt
> CC(C)Cn1c(CCC(=O)O)ccc1-c1ccccc1
    5 | -1.4
> COC(=O)CNC(=O)c1ccccc1Cl
    0.6 | 0.25
> COC(=O)c1ccc(CNC(=O)Nc2cccc(SC)c2)cc1
    -0.2 | nt

High-throughput results from PubChem BioAssay.
